Assay outcomes: PubChem BioAssay, Broad Institute
p53 mut binder = binders of human mutant p53, primary screen, biochemical, small molecule microarray, anti-GST fluorescence; small molecule microarray binding; calls only; 17,000 tested, 0.4% active;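 active = compounds whose four printed spots each glow above background more than chance allows, each with a p-value under 7%; compounds were printed on slides so no solution concentration is given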;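 note: about 2 pmol printed per array spot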
Myc binder = binders of human c-Myc, primary screen, biochemical, small molecule microarray, anti-His fluorescence. Myc proto-oncogene protein (Homo sapiens), P01106. His-c-Myc binding. calls only. 17,000 tested, 1.5% active;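 active = spot fluorescence over background with P-value below 7% in all four replicate spots, showing protein binding; compounds were printed on slides so no solution concentration is given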;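 note: score is binary with 100 for all four spots passing and 0 otherwise; about 2 pmol printed per array spot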
Target sequence (P01106 whole entry, looked up): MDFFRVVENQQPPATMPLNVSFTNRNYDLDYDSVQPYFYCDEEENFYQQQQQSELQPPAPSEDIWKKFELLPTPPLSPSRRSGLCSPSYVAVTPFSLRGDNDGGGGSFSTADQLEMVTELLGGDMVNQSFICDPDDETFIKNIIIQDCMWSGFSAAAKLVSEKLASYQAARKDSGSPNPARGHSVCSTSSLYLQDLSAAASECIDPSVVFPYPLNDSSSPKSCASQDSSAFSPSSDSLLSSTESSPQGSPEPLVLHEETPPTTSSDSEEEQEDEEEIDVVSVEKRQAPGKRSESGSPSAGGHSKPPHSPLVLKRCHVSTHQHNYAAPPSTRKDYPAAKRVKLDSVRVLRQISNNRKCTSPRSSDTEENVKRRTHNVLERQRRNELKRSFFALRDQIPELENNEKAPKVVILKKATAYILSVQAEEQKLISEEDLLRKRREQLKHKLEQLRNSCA
STAT3 binder = STAT3 binders, primary screen, biochemical, small molecule microarray, single point, set 2; Signal transducer and activator of transcription 3 (Homo sapiens), P40763; His-STAT3 binding, anti-His fluorescence; calls only; 17,000 tested, 0.2% active; AID 624138, 2012;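 active = compounds whose four printed spots each show fluorescence over background unusually high for their array block, chance value under 7%; compounds were printed on slides so no solution concentration is given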;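 note: about 2 pmol printed per array spot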
ID4 SMM = binders of human ID4 protein, primary screen, biochemical, small molecule microarray, single point; DNA-binding protein inhibitor ID-4 (Homo sapiens), P47928; Flag-ID4 binding, fluorescence F/B; calls only; 31,000 tested, 1.2% active;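 active = spot signal over background at p below 0.07 in all four prints; compounds were printed on slides so no solution concentration is given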;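 note: a binder raises fluorescence above local background on the spot; about 2 pmol printed per array spot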
Target sequence (P47928 whole entry, looked up): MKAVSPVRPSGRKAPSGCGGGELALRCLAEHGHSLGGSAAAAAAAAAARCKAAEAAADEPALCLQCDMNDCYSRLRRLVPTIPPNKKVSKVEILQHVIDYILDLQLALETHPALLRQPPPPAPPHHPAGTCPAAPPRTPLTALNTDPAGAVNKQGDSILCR
Calls only; i = inactive; . = not tested or not shown; + = active, no number.

Structure	STAT3 binder	Myc binder	ID4 SMM	p53 mut binder
Cc1noc(C)c1S(=O)(=O)Nc1cccc2c1O[C@@H](CN(C)C)[C@@H](C)CN([C@H](C)CO)C2=O	i	i	i	i
C[C@@H]1CN([C@H](C)CO)C(=O)c2cc(NC(=O)c3ccncc3)ccc2O[C@H]1CN(C)C(=O)NC1CCCCC1	i	i	i	i
C[C@H](CO)N1C[C@H](C)[C@@H](CN(C)C(=O)Nc2ccccc2)Oc2ccc(NC(=O)c3ccncc3)cc2CC1=O	i	i	i	i
C#CCNC(=O)C1=C[C@@H](c2ccc3c(c2)OCO3)C[C@@H](OCc2ccc(CO)cc2)O1	i	i	i	i
CCOC(=O)c1c(NC(=O)Cn2cnc3sc(C)c(C)c3c2=O)sc(C)c1C	i	i	i	i
C[C@@H]1CN([C@@H](C)CO)C(=O)c2cc(NC(=O)C3CCCCC3)ccc2O[C@@H](C)CCCCO[C@@H]1CN(C)C(=O)Nc1ccccc1	i	i	i	i
C[C@@H]1CCCCO[C@@H](CN(C)C(=O)CCCN(C)C)[C@H](C)CN([C@H](C)CO)C(=O)c2cc(NC(=O)Cc3ccccc3)ccc2O1	i	i	i	i
C[C@@H]1CCCCO[C@H](CN(C)S(=O)(=O)c2cccs2)[C@@H](C)CN([C@H](C)CO)C(=O)c2cc(NS(=O)(=O)c3cccs3)ccc2O1	i	i	i	i
COc1ccc(CN(C)C[C@@H]2Oc3ccc(NC(=O)Nc4c(C)noc4C)cc3CC(=O)N([C@@H](C)CO)C[C@@H]2C)cc1	i	i	i	i
C[C@@H]1CN([C@@H](C)CO)C(=O)c2cc(NC(=O)c3ccncc3)ccc2O[C@@H]1CN(C)C(=O)Nc1ccc(F)cc1	i	i	i	i
C[C@H](CO)N1C[C@H](C)[C@@H](CN(C)S(=O)(=O)c2ccccc2)OCCCC[C@H](C)Oc2ccc(NC(=O)CCC(F)(F)F)cc2C1=O	i	i	i	i
O=C(CN1C(=O)c2ccccc2C1=O)Oc1ccc(C(=O)Nc2ccccc2)cc1	i	i	i	i
CC(C)NC(=O)Nc1ccc2c(c1)CC(=O)N([C@H](C)CO)C[C@H](C)[C@H](CN(C)CC1CC1)O2	i	i	i	i
C[C@H](CO)N1C[C@H](C)[C@@H](CN(C)C(=O)c2cc(-c3ccccc3)on2)OCc2cn(nn2)CCCC1=O	i	i	i	i
Cc1ccc(-c2nnc(SCC(=O)Nc3ccc(Br)cc3C(C)C)o2)cc1	i	i	i	i
COc1ccc(NC(=O)Nc2cccc3c2O[C@H](CN(C)S(=O)(=O)c2cccs2)[C@@H](C)CN([C@H](C)CO)C3=O)cc1	i	i	i	i
Cc1noc(C)c1NC(=O)N(C)C[C@H]1Oc2c(NC(=O)C3CCCCC3)cccc2C(=O)N([C@@H](C)CO)C[C@H]1C	i	i	.	i
O=C(OCCN1CCOCC1)C1(c2ccccc2)CCCCC1	i	i	i	i
CCCc1c(OCC(O)COc2ccc3c(=O)cc(C(=O)O)oc3c2CCC)ccc(C(C)=O)c1O (stereo unspecified)	i	i	i	i
Cc1noc(C)c1S(=O)(=O)Nc1cccc2c1O[C@H](CN(C)CC1CCCCC1)[C@H](C)CN([C@H](C)CO)C2=O	i	i	.	i
CNC[C@@H]1Oc2c(NC(=O)Nc3ccccc3)cccc2C(=O)N([C@H](C)CO)C[C@H]1C	i	i	i	i
C[C@H](CO)N1C[C@H](C)[C@@H](CN(C)C(=O)Nc2ccc(C(F)(F)F)cc2)Oc2ccc(NC(=O)Nc3ccccc3)cc2CC1=O	i	i	i	i
C[C@@H]1CN([C@@H](C)CO)C(=O)CCCn2cc(nn2)CO[C@H]1CN(C)C(=O)Nc1cccc(Oc2ccccn2)c1	i	i	i	i
C[C@@H]1CN([C@H](C)CO)C(=O)Cc2cc(NS(=O)(=O)c3cccs3)ccc2O[C@@H]1CN(C)Cc1ccccc1	i	i	i	i
C[C@H](CO)N1C[C@H](C)[C@@H](CN(C)S(=O)(=O)c2cn(C)cn2)Oc2ccc(N(C)C)cc2C1=O	i	i	i	i
COc1ccc(C(=O)NCCCSc2nc(C(C)(C)C)cc(C(F)(F)F)n2)cc1	i	i	i	i
O=C(Nc1ccccc1)C1=C[C@@H](c2ccc3c(c2)OCO3)C[C@@H](OCCCCO)O1	i	i	i	i
CC(C)c1cnc(NC(=O)Cc2ccccc2)s1	i	i	i	i
O=C(CSc1nnc(-c2ccccc2)n1-c1ccccc1)Nc1ccccc1C(F)(F)F	i	i	i	i
COc1cccc(C2CC(=O)NC(SCC(=O)Nc3ccccc3Cl)=C2C#N)c1OC (stereo unspecified)	i	i	i	i

Sorted by SMILES length (highest first): some entries from above.
Structure	STAT3 binder	Myc binder	ID4 SMM	p53 mut binder
C[C@H](CO)N1C[C@H](C)[C@@H](CN(C)S(=O)(=O)c2ccccc2)OCCCC[C@H](C)Oc2ccc(NC(=O)CCC(F)(F)F)cc2C1=O	i	i	i	i
COc1ccc(CN(C)C[C@@H]2Oc3ccc(NC(=O)Nc4c(C)noc4C)cc3CC(=O)N([C@@H](C)CO)C[C@@H]2C)cc1	i	i	i	i
Cc1noc(C)c1S(=O)(=O)Nc1cccc2c1O[C@H](CN(C)CC1CCCCC1)[C@H](C)CN([C@H](C)CO)C2=O	i	i	.	i
O=C(Nc1ccccc1)C1=C[C@@H](c2ccc3c(c2)OCO3)C[C@@H](OCCCCO)O1	i	i	i	i

(further entries)
Structure	STAT3 binder	Myc binder	ID4 SMM	p53 mut binder
Cc1cc2c(=O)n(Cc3ccco3)c(SCC(=O)N3CCc4ccccc43)nc2s1	i	i	i	i
CCCC(=O)c1ccc(OCc2nc3ccccc3[nH]2)cc1	i	i	i	i
C[C@@H]1CN([C@@H](C)CO)C(=O)c2cc(NC(=O)NC3CCCCC3)ccc2O[C@H]1CN(C)S(=O)(=O)c1cn(C)cn1	i	i	i	i
COc1ccc(NC(=O)Nc2cccc3c2O[C@H](CN(C)C)[C@@H](C)CN([C@@H](C)CO)C3=O)cc1	i	i	i	i
COC(=O)C(CC#Cc1ccc2c(c1)[C@]1(C(=O)N2)[C@H](c2ccc(OCCO)cc2)N2[C@H](c3ccccc3)[C@H](c3ccccc3)OC(=O)[C@H]2[C@@H]1C(=O)NC[C@H](O)c1ccccc1)C(=O)OC	i	i	.	i
Cc1cc(C)c(C(=O)Nc2ccc(S(=O)(=O)Nc3cc(C)nc(C)n3)cc2)c(C)c1	i	i	i	i
Cc1nnc(SCC(=O)n2c3c(c4ccccc42)CC(C)CC3)s1 (stereo unspecified)	i	i	i	i
C/C=C(\C)C(=O)OC(C)(C)C1Cc2cc3ccc(=O)oc3cc2O1 (stereo unspecified)	i	i	i	+
Cn1c(SCC(=O)NC2CCCCCC2)nnc1-c1ccco1	i	i	i	i
CC(C)[C@@H]1C=C(C(=O)O)O[C@H](OCc2ccc(CO)cc2)C1	i	i	i	i
COc1ccc(NC(=O)Nc2cccc3c2O[C@@H](CN(C)C)[C@@H](C)CN([C@H](C)CO)C3=O)cc1	i	i	i	i
CN(CC(=O)Nc1ccc(C(=O)O)cc1)S(=O)(=O)c1ccccc1	i	i	i	i
Cc1cc(C)nc(N(C#N)C(C(=O)c2ccccc2)c2ccccc2)n1 (stereo unspecified)	i	i	i	i
COc1ccccc1CC(=O)Nc1ccc(-c2nnc(-c3ccccc3)o2)cc1	i	i	i	i
COc1cc2c(cc1OC)CN(C(=O)[C@H]1[C@@H]3C(=O)O[C@@H](c4ccccc4)[C@@H](c4ccccc4)N3[C@@H](c3ccccc3OCCO)[C@]13C(=O)Nc1ccc(C#CC4(O)CCCCCC4)cc13)CC2	i	i	i	i
C=CCOC(=O)[C@H]1[C@@H]2C(=O)O[C@@H](c3ccccc3)[C@@H](c3ccccc3)N2[C@@H](c2ccc(OCCOC(=O)[C@H]3C[C@H]4C(=O)N5CCC[C@H]5C(=O)N4[C@H]3c3cccc(OCCO)c3)cc2)[C@]12C(=O)Nc1ccccc12	i	i	i	i
C[C@H](CO)N1C[C@H](C)[C@@H](CN(C)C(=O)NC2CCCCC2)Oc2ccc(NC(=O)Nc3ccc4c(c3)OCO4)cc2C1=O	i	i	i	i
C=CCNC(=O)[C@@H]1[C@H]2C(=O)O[C@H](c3ccccc3)[C@H](c3ccccc3)N2[C@H](c2ccc(OCCO)cc2)[C@@]12C(=O)Nc1ccc(C#CC3=CCCCC3)cc12	i	i	i	i
C[C@H](CO)N1C[C@H](C)[C@@H](CN(C)C(=O)NC2CCCCC2)Oc2ccc(NC(=O)Nc3ccc(F)cc3)cc2C1=O	i	i	i	i
O=c1[nH]c(NCCCO)nc2c1C1(CCCC1)Cc1ccccc1-2	i	i	i	i
CCCN(C)C[C@H]1OCCCC[C@@H](C)Oc2ccc(NC(=O)CCC(F)(F)F)cc2C(=O)N([C@@H](C)CO)C[C@H]1C	i	i	.	i
CC1(C)Cc2c(sc3nc(SCC(=O)O)[nH]c(=O)c23)CO1	i	i	i	i
Cn1c(SCC(=O)c2cccc([N+](=O)[O-])c2)nnc1-c1ccco1	i	i	i	i
C[C@@H]1CCCCO[C@H](CN(C)C(=O)Cc2ccccc2)[C@@H](C)CN([C@@H](C)CO)C(=O)c2cc(NC(=O)Nc3ccc(F)cc3)ccc2O1	i	i	i	i
Cc1noc(C)c1NC(=O)N(C)C[C@H]1OCCCC[C@@H](C)Oc2ccc(NC(=O)CCC(F)(F)F)cc2C(=O)N([C@@H](C)CO)C[C@@H]1C	i	i	i	i
O=C(Nc1ccccc1)C1=C[C@@H](C2CCCCC2)C[C@@H](OCc2ccc(CO)cc2)O1	i	i	i	i
COc1ccc(Nc2nc(N)nc(CSc3nccn3C)n2)cc1	i	i	i	i
C[C@@H]1CN([C@@H](C)CO)C(=O)c2cccc(NS(=O)(=O)c3ccccc3)c2O[C@H]1CN(C)C	i	i	i	i
O=C(NCc1ccco1)C1CCC(N2C(=O)C3C4CCC(C4)C3C2=O)CC1 (stereo unspecified)	i	i	i	i
CCCCCCCCc1ccc(-c2ccc(C(=O)O)cc2)cc1	i	i	i	i
C[C@@H]1CN([C@@H](C)CO)C(=O)c2cc(NC(=O)CCCN(C)C)ccc2O[C@H]1CN(C)Cc1ccc2c(c1)OCO2	i	i	i	i
O=C(CCCN1CCC(O)(c2ccc(Br)cc2)CC1)c1ccc(F)cc1	i	i	i	i
COc1cc(-c2c(C)cc(O)cc2O[C@@H]2O[C@H](CO)[C@@H](O)[C@H](O)[C@H]2O)oc(=O)c1	i	i	.	i
C[C@@H]1CN([C@H](C)CO)C(=O)Cc2cc(NC(=O)Cc3cn(C)c4ccccc34)ccc2O[C@H]1CN(C)C(=O)Nc1ccc(F)cc1	i	i	.	i
Cc1c(Cl)c(C(F)(F)F)nn1CCCNC(=O)Nc1cccc([N+](=O)[O-])c1	i	i	i	i
COc1ccc(NC(=O)N(C)C[C@H]2Oc3c(NS(=O)(=O)c4cccs4)cccc3C(=O)N([C@H](C)CO)C[C@H]2C)cc1	i	i	i	i
CC(C)NC(=O)N(C)C[C@@H]1OCCCC[C@H](C)Oc2ccc(NC(=O)Nc3ccc4c(c3)OCO4)cc2C(=O)N([C@@H](C)CO)C[C@H]1C	i	i	i	i
C[C@H](CO)N1C[C@H](C)[C@H](CN(C)Cc2ccccc2)Oc2ncc(-c3cccc(F)c3)cc2C1=O	i	i	i	i
Cc1cc(C(=O)Nc2cccc3c2O[C@@H](CN(C)C(=O)Nc2ccccc2)[C@@H](C)CN([C@H](C)CO)C3=O)n(C)n1	i	i	.	i
COc1ccc(CN(C)C[C@H]2Oc3ccc(NC(=O)C4CC4)cc3CC(=O)N([C@H](C)CO)C[C@@H]2C)cc1	i	i	i	i
C[C@@H]1CN([C@@H](C)CO)C(=O)c2cccc(N(C)C)c2O[C@H]1CN(C)S(=O)(=O)c1ccc(Cl)cc1	i	i	i	i
COc1ccc(NC(=O)Nc2ccc3c(c2)CC(=O)N([C@@H](C)CO)C[C@@H](C)[C@H](CN(C)S(=O)(=O)c2ccc(C)cc2)O3)cc1	i	i	i	i
COc1ccc(NC(=O)N(C)C[C@@H]2Oc3c(cccc3N(C)C)C(=O)N([C@@H](C)CO)C[C@@H]2C)cc1	i	i	i	i
C[C@H](CO)N1C[C@H](C)[C@@H](CN(C)CC2CC2)Oc2ccc(NS(=O)(=O)c3cn(C)cn3)cc2CC1=O	i	i	i	i
Cc1noc(C)c1NC(=O)Nc1ccc2c(c1)CC(=O)N([C@H](C)CO)C[C@H](C)[C@H](CN(C)Cc1ccc(C(F)(F)F)cc1)O2	i	i	i	i
C[C@H]1CCCCO[C@H](CN(C)Cc2ccccc2)[C@@H](C)CN([C@@H](C)CO)C(=O)c2cc(NS(=O)(=O)c3ccc(F)cc3)ccc2O1	i	i	.	i
COc1ccc(S(=O)(=O)N(C)C[C@@H]2Oc3ccc(NS(=O)(=O)c4cccs4)cc3C(=O)N([C@@H](C)CO)C[C@H]2C)cc1	i	i	i	i

The list is partial. The share of hits here may be higher or lower than overall.
